# TRPV1 PAM: enhances activation of the human vanilloid receptor TRPV1. Q8NER1. TRPV1-expressing cells, Fluo-8 calcium influx, capsaicin EC20 potentiation; host cell line not named in the record; control for the full effect not named in the record. potentiation, % at 8.33 µM. actives 0.02% (n = 320,000). AID 540277; active means potentiation above 80%; inconclusive means 30% to 80%; inactive means below 30%; note: 0% is about no effect
# Target sequence (Q8NER1 whole entry, looked up): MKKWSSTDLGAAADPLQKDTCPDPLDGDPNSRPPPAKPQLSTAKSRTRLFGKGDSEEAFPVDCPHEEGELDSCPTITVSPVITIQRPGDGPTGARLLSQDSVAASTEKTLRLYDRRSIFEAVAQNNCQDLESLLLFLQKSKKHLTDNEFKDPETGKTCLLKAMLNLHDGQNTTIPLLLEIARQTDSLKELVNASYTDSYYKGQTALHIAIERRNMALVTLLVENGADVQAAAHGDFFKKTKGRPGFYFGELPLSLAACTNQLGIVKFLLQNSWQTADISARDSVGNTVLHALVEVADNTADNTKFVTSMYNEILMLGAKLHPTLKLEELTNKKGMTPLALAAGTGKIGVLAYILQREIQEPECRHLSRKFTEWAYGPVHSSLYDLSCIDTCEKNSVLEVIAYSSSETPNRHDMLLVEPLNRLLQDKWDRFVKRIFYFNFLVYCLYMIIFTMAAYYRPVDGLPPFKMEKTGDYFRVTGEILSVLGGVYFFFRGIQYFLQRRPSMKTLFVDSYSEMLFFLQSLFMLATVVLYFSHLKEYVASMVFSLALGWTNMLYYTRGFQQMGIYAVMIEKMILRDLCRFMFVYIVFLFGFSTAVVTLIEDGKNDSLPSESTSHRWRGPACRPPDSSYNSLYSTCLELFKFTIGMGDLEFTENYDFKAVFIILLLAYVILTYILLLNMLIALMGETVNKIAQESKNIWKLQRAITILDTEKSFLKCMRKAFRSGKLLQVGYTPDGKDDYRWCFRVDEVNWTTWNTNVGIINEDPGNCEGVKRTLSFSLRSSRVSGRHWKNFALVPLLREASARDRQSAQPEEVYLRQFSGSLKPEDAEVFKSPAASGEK
#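 Fluo-8 calcium influx in TRPV1-expressing cells, kinetic read (ex 480/em 520 nm). Compound added and read 3 min for agonist activity, followed by capsaicin at EC20 final and 2 min further read for enhancement.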
# PINK1 modulator: PINK1 expression modulation; PINK1 immunofluorescence, high-content cytometry, 24 h; Potency, µM (top dose mostly 76.6 µM), for the others: top-dose activation (PINK1 increase), usual class: activators; actives 0.2% (n = 410,000); active = well fitted activation curve with a large enough effect; inconclusive = small, poorly fitted or top-dose-only effect; inactive = flat fitted curve, though single readings scatter; cell line not stated here;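 note: potency is the fitted concentration of half-maximal effect; % of control where 0% means no effect; nearly all actives have a fitted effect of over 65% in size; a mitochondrial uncoupler was the plate control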
#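 Compound titrations (5 concentrations, 24 h) on a stable cell line; DMSO and CCCP controls. Endpoint: fixed-cell PINK1 immunofluorescence with mitochondrial, cell and nuclear markers, scanned by microplate cytometer.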
# Sfp inh: inhibitors of Bacillus subtilis Sfp phosphopantetheinyl transferase; Biochemical Sfp PPTase activity, qHTS; Potency, µM, inactives show max response, negative = inhibition, actives largely listed as inhibitors; actives 3.5% (n = 310,000); AID 1490; active = well fitted inhibition curve with a large enough effect; inconclusive = small, poorly fitted or top-dose-only effect, or another doubt; inactive = no such curve, though single readings can be large or run the other way;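 note: the enzyme is Sfp with the accession as filed and its product quenches rhodamine fluorescence; potency is the fitted concentration of half-maximal effect; 0% = enzyme reaction without inhibitor and -100% = no enzyme wells; top concentration of the series not given in the record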
#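 Reaction rates are the 30-min fluorescence difference (ex 525, em 598 nm) in wells containing 15 nM Sfp, 5 uM rhodamine-CoA and 12.5 uM BHQ-2-YbbR at pH 7.6 with 10 mM MgCl2.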
# Menin MLL FP FL: displaces fluorescein MLL peptide from human menin | Fluorescence polarization, fluorescein-MLL peptide displacement from menin | FP activity change, % at 61.4 µM | 290,000 tested, under 10 active; inconclusive = falling polarisation curve, or a change in total fluorescence; inactive = total fluorescence flat and polarisation flat or rising; no compound was filed as active; the % refers to the polarisation; negative = inhibition;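 note: % of control where 0% means no effect; inhibitors lower the polarisation; unlabelled MLL peptide was the positive control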
# ClpP mod: qHTS Assay for Activators of ClpP; Potency, µM (doses to about 57.5 µM), inactives show top-dose activity change, negative = active; actives 1.9% (n = 340,000); ATP-dependent Clp protease proteolytic subunit (Bacillus subtilis (strain 168)), P80244; purified B. subtilis ClpP, FRET peptide cleavage, 20 min; active = well fitted falling curve with a large enough effect; inconclusive = small, poorly fitted or top-dose-only effect; inactive = no such curve, though single readings can be large or run the other way; note: potency is the fitted concentration of half-maximal effect; the source files actives as falling curves though it sought activators and does not explain the sign; nearly all actives have a fitted effect of over 65% in size; many hits overshoot -100%
# Target sequence (P80244 whole entry, looked up): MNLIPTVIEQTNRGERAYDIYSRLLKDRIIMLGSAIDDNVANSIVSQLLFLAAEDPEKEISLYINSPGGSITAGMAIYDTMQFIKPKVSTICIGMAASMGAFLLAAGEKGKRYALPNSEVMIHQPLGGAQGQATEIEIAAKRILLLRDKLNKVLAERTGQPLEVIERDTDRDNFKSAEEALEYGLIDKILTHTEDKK
#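 Buffer: 100 mM Tris/HCl pH8, 100 mM KCl, 0.05% low protease BSA, 2.5% glycerol, 0.01% Tween-20. ClpP 10 microg/mL final; 20 min RT; delta FRET normalized to ADEP and DMSO controls.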
# TRPML1 agonist: human mucolipin-1 channel agonism | Q9GZU1 | TRPML1-expressing cells, Ca2+ dye fluorescence, FDSS; host cell line not named in the record; reference of the full effect not given here | activation, % (concentration not given with the values) | actives 0.12% (n = 410,000) | AID 624414; in the data active = activation above about 50%; inconclusive = about 30% to 50%; inactive = below about 30%; note: 0% is about no effect; the text of the record puts the active cut at 80%
#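 Agonist activity was taken from a 110 s kinetic Ca2+ dye read on the FDSS after pinning compounds onto TRPML1-DL cells. The cells were seeded at 1,500/well with Tet inducer, incubated about 16 h, then dye-loaded at room temperature.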
# TRPML1 inh: inhibitors of human TRPML1 channel | Q9GZU1 | TRPML1-inducible cells, Ca2+ dye fluorescence, FDSS; hits give low values; inhibition of EC80 agonist-evoked calcium signal | activity change, negative = inhibition, % (concentration not given with the values) | actives 0.02% (n = 390,000) | AID 624415; in the data active means activity change below about -50%; inconclusive means about -30% to -50%; inactive means above about -30%;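 note: stimulus is agonist 54-4 at its EC80 concentration; % is set by controls: 0 for no effect and ±100 for the full control effect; compound concentration not given in the record; the text of the record puts the active cut at -80%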
#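 Calcium fluorescence in TRPML1-DL cells induced overnight with Tet: a 110 s read after compound pin addition, then a 110 s antagonist read after challenge with 54-4 at 4 uM final (EC80).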
# * = called active by the depositor; ? = inconclusive; . = not tested or not shown; & = joins results of further samples; [ ] = dose if it differs, or a comment.
compound | TRPV1 PAM | PINK1 modulator | Sfp inh | Menin MLL FP FL | ClpP mod | TRPML1 agonist | TRPML1 inh
c1ccc(CN2CCC(Nc3nc(-c4cccs4)nc4ccccc34)CC2)cc1 | 5 | -2.6% | 79µM* | -2.8 | ? | 0.5 | 7
CCOC(=O)N1CCN(C(=O)CS(=O)(=O)c2cn(Cc3cccc(F)c3)c3ccccc23)CC1 | -2 | 0.8%[38.3 µM] | 2% | 2.2 | -0.4% | 1.3 | -19
O=C(c1ccc(COc2ccccc2)o1)N1CCN(S(=O)(=O)c2ccccc2Cl)CC1 | -1 | -0.6% | . | . | -0.1% | -0.2 | -5
CC(C)C12CN(C(=O)c3ccccc3[N+](=O)[O-])CC(C(C)C)(CN(C(=O)c3ccccc3[N+](=O)[O-])C1)C2=O | 16 | 3.7% | -16% | 1.5 | 0.8% | 1.2 | 0
Cn1ncc2c1ncn1nc(CCc3ccccc3)nc21 | -10 | . | 12% | 4.3 | -0.3% | -0.3 | -6
Cc1ccc(-n2nc3c(=O)n(CC(=O)NCc4ccco4)nc(C)c3c2C)cc1 | . | 0.7% | . | . | -4.8% | -0.2 | 3
COc1cccc(CNC(=O)CCNS(=O)(=O)c2ccc(Br)s2)c1 | 18 | -1.3% | 7% | 3.4 | -0.6% | -1.7 | 11
O=C(C1CC1)N1CCN(c2ccc([N+](=O)[O-])cc2)CC1 | . | 0.0% | . | . | 1.0% | -0.9 | -11
O=C(O)c1ccccc1C(=O)Nc1ccc(-c2csc(-c3ccccc3)n2)cc1 | 18 | -1.8% | 5% | 4.8 | -18% | 0.7 | 32
CC1(Cc2ccc3c(c2)OCO3)C(=O)Nc2c(Cl)ccc(Cl)c21 (configuration not stated) | . | 2.9% | . | . | -4.3% | -0.6 | .
O=C1CC(Nc2ccc(N3CCOCC3)cc2)C(=O)N1c1cccc(C(F)(F)F)c1 (configuration not stated) | 0 | 1.6% | ? | 0.0 | -2.2% | -0.1 | 7
COC(=O)c1[nH]c2ccc(F)cc2c1NC(=O)Nc1ccc(OC)cc1 | -4 | 1.0% | -11% | 0.6 | 3.6% | 3.3 | 10
CCC(CC)NC(=O)Nc1ccccc1C | -1 | 2.8% | 24% | -0.6 | . | -0.1 | -11
CC(=O)Oc1ccc(Cl)cc1CN(C(C)=O)C1CCCCC1 | . | -3.3% | . | . | . | 1.4 | -7
O=C(CCS(=O)(=O)Cc1ccccc1)NC1CCCCC1 | 7 | -1.4%[38.3 µM] | 15% | 1.3 | 0.5% | -0.4 | 7
O=C(C(c1ccccc1)c1ccccc1)N1CCN(CC(O)COc2ccccc2)CC1 (configuration not stated) | -11 | 0.7% | -15% | 2.1 | -0.6% | 0.7 | 14
CCCCC(=O)NS(=O)(=O)c1ccc(NS(C)(=O)=O)cc1 | 14 | 2.5% | 7% | 6.4 | 1.3% | 0.5 | 53
COc1ccc(C(OC(=O)c2ccco2)C(=O)NCC2CCCO2)cc1 (configuration not stated) | 17 | -1.4% | 12% | -2.2 | 0.0% | 1.3 | -20
COC(=O)c1nn(-c2ccccc2)c(Cl)c1/C=N/OC(=O)c1ccc(Cl)c(Cl)c1 | -3 | 9.3% | 13% | -0.1 | 0.5% | 1.6 | -8
CCOc1ccc(S(=O)(=O)NCCC(=O)NNC(=O)c2ccc(F)cc2)cc1 | . | 0.4% | . | . | -2.2% | -0.1 | 20
COc1ccc(C2c3sc(=O)[nH]c3SC3C4CCC(C4)C23)cc1 (configuration not stated) | 4 | -0.8% | -12% | 3.4 | -0.2% | 1.0 | -10
O=C(O)c1ccc(-c2nc(-c3ccc(Cl)cc3Cl)cs2)cc1 | 3 | 1.2% | 9% | -0.1 | . | -0.2 | -7
Cc1noc(C)c1S(=O)(=O)NCc1ccc(CN(C)C)cc1 | -2 | -0.6% | . | . | 0.5% | 1.1 | -13
COc1cc(CN(C)CC2CCCN(CCc3cccc(C(F)(F)F)c3)C2)ccc1O (configuration not stated) | 27 | 8.9% | 12% | -1.0 | 0.6% | 0.5 | 4
CC(=O)c1c(C(C)=O)c(C)n(-c2nc(-c3ccc(C)c(C)c3)c(C)s2)c1C | -6 | 7.8% | -6% | 1.3 | 2.1% | 0.7 | 1
O=C(Nc1cccc(NC(=O)c2cc([N+](=O)[O-])ccc2Cl)n1)c1cc([N+](=O)[O-])ccc1Cl | . | 6.8% | . | . | 0.0% | 0.7 | ?
Cc1cc2c(c(=O)n1CCN(C)C)C(c1ccncc1)C(C#N)=C(N)O2 (configuration not stated) | -15 | -2.2% | 12% | 0.3 | 2.5µM* | 0.2 | 7
Cc1ccc(NC(=O)CN(c2ccc(C)cc2)S(=O)(=O)c2cccc3nonc23)cc1 | -5 | 4.7%&0.5% | 12% | 2.7 | -1.4%&-1.0% | 2.2&1.1 | -12&-7
CCOc1ccc(NC(=O)Cn2c(=O)n(Cc3ccco3)c(=O)c3ccc(C(=O)NC4CCCC4)cc32)cc1 | . | -2.8% | . | . | -2.1% | 1.7 | -4
COc1ccccc1-n1c(SCC(=O)NC2CCCCC2)nc2c(c1=O)SCC2 | -4 | 1.1% | -15% | -3.3 | -3.2% | -0.4 | -1
CCn1c(-c2cccs2)nc2ccccc21 | 2 | -1.2% | 6% | -1.0 | 3.2µM* | 0.4 | 14
S=C(/N=c1/sccn1Cc1ccccc1)NC1CC1 | -5 | -1.2% | -12% | 3.7 | . | 1.9 | 35
O=[N+]([O-])c1cc(Br)ccc1C[n+]1ccccc1 | . | 0.3% | . | . | 0.2% | 1.2 | 10
CC(NC(=O)CCCCCNC(=O)N1CCn2c1nc1ccccc12)c1ccccc1 (configuration not stated) | 10 | 2.6% | -2% | 0.9 | -5.3% | -0.1 | -9
Cc1cc(Br)ccc1NC(=O)CNC(=O)CSc1nccn1C | . | -1.0% | . | . | 3.4% | 0.3 | 5
Cc1ccc(S(=O)(=O)Nc2ccc3cn[nH]c3c2)cc1 | 4 | 0.4% | . | . | -1.8% | 0.3 | -3
CCN(C(=O)CSc1nnc(C2CC2)n1-c1ccccc1)C1CCS(=O)(=O)C1 (configuration not stated) | 14 | 0.7% | . | . | 2.4% | -0.6 | 1
Cn1cc(S(=O)(=O)c2ccc(Cl)cc2)c(=O)c2cc(F)c(N3CCOCC3)cc21 | . | 1.3% | . | . | -19% | -0.5 | 2
CC1=NN2C(=N)/C(=C\c3cc(C)n(-c4ccccc4)c3C)C(=O)N=C2S1 | 5 | ? | 15% | -1.7 | . | 0.5 | 12
COCCNC(=O)C(NC(=O)C1CCCCC1)C12CC3CC(CC(C3)C1)C2 (configuration not stated) | 9 | 0.4% | 4% | 1.9 | -1.6% | 0.2 | -7
CCOC(=O)c1cnc2nc(NCc3ccc(OCc4ccccc4)cc3)[nH]n2c1=O | 14 | 6.2%[38.3 µM] | 14% | 5.0 | -4.4% | 1.0 | -13
COC(=O)c1ccc2nc(-c3ccc(C#N)cc3)c(Cc3cccc(Cl)c3)n2c1 | . | 9.0% | . | . | 5.3% | 0.3 | .
O=C(COC(=O)CNC(=O)c1ccc(F)cc1)NC1CCCc2ccccc21 (configuration not stated) | . | 2.8% | . | . | -0.8% | 0.3 | -2
C[C@H](CO)N1C[C@H](C)[C@@H](CN(C)CC2CC2)Oc2c(NS(=O)(=O)c3ccccc3)cccc2C1=O | . | 0.6% | . | . | 2.0% | -0.3 | 22
CC1(C)Cc2c(sc3c2c(=O)n(Cc2ccccc2)c2nncn32)CO1 | -2 | -1.1% | 12% | -0.4 | -1.0% | 0.1 | 15
O=C1CN2C(=Nc3ccc(Cl)cc3C2c2ccccc2)CN1 (configuration not stated) | -2 | 0.2% | 5% | 4.4 | -0.1% | -0.4 | -2
O=C(Nc1nc2ccccc2s1)C1c2ccccc2Oc2ccccc21 | 10 | ? | 4% | 1.4 | -4.5% | -0.2 | -1
COC(=O)CC1C(C)(C)C(=O)C2CC3=C(CC[C@]4(C)C3=CC(=O)OC4c3ccoc3)[C@@]1(C)C2=O (some centres not stated) | . | 1.6% | -4% | -1.5 | . | . | .
Cc1cccc(C(=O)OCC(=O)NC(=O)c2ccccc2)c1O | 2 | -1.4% | . | . | 13µM* | 0.7 | -3
Cc1cc(C(=O)N2CCC(C(N)=O)CC2)c(C)o1 | -17 | -1.9% | . | . | -3.1% | -0.2 | 14
Cc1ccc(C(=O)N2CC(C)CC(C)C2)cc1S(=O)(=O)N1CCCCC1 (configuration not stated) | -9 | 1.0% | . | . | 1.4% | -0.5 | 6
CCOC(=O)C1(C)CCN1C(=O)c1cc(-c2ccc(Cl)cc2)oc1C (configuration not stated) | . | -0.1% | . | . | -3.5% | -0.8 | .
CC1(C)CC(=O)C2=C(C1)OC(=O)CC2c1cccs1 (configuration not stated) | 8 | 0.6% | 10% | 0.3 | 0.8% | 0.9 | ?
CC1(C)Cc2nc(Cl)c(C(=O)O)cc2CO1 | -1 | -0.3% | 17% | -5.0 | . | 0.2 | -6
Cc1ccc(S(=O)(=O)N(C)Cc2ccccc2)cc1C(=O)N1CCCCC1 | -23 | -0.9% | 2% | . | -7.5% | 0.3 | 1
COc1ccc(C(=O)COC(=O)Cc2n[nH]c(=O)c3ccccc23)c(OC)c1 | -2 | -1.1% | . | . | 12% | -0.1 | -10
COc1cc(C(CC(=O)Nc2cc(C)ccc2C)N2Cc3ccccc3C2=O)cc(OC)c1OC (configuration not stated) | . | -0.7% | . | . | 3.1% | 2.2 | 1
CN(C)c1nc(N)c(C#N)c(C#N)c1C#N | . | 0.9% | . | . | -13% | 0.4 | -5
Cc1c(Cl)cccc1NC(c1ccc(F)cc1)c1nnc(-c2ccccc2)o1 (configuration not stated) | . | 3.8% | . | . | -2.1% | 0.4 | -15
Cc1ccc(OC(=O)c2ccc(N3CCOCC3)c([N+](=O)[O-])c2)cc1 | -7 | -1.9% | -12% | 0.9 | 4.0% | -1.0 | 10
Cc1cc(C)nc(NS(=O)(=O)c2ccc(NS(=O)(=O)c3ccc(F)c(F)c3)cc2)n1 | . | -1.6% | . | . | -2.1% | 0.1 | 10

# Grouped by structure, those above containing a cyano group
compound | TRPV1 PAM | PINK1 modulator | Sfp inh | Menin MLL FP FL | ClpP mod | TRPML1 agonist | TRPML1 inh
Cc1cc2c(c(=O)n1CCN(C)C)C(c1ccncc1)C(C#N)=C(N)O2 (configuration not stated) | -15 | -2.2% | 12% | 0.3 | 2.5µM* | 0.2 | 7
COC(=O)c1ccc2nc(-c3ccc(C#N)cc3)c(Cc3cccc(Cl)c3)n2c1 | . | 9.0% | . | . | 5.3% | 0.3 | .
CN(C)c1nc(N)c(C#N)c(C#N)c1C#N | . | 0.9% | . | . | -13% | 0.4 | -5

# Screens from PubChem.
